From PubChem
BJeLR lethal: BJeLR cell viability loss; inhibition, % (concentration not given with the values); hit rate 0.17% among 300,000; BJeLR (HRASV12) viability, CellTiter-Glo ATP luminescence, 48 h; reference of the scale not given here; AID 1554;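 active means replicate mean above 50%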;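 further: 50 nL library stock added to about 25 µL; numbers are from one replicate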
Mtb hypoxia inh: reduces hypoxia-regulated biosensor signal in M. tuberculosis | M. tuberculosis hypoxia-regulated fluorescent reporter, fluorescence | fluorescence inhibition, % (test concentration not listed) | hit rate 0.1% among 300,000 | AID 1159583;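 active means 35 to 45% if threefold the growth effect, above 45% if 1.5-fold the growth effect; inactive means the rest, general growth blockers included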;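 further: wells of about 50 µL received 100 nL stock; 0% = vehicle wells and 100% = reference inhibitor wells; whole bacteria with a GFP reporter of the hypoxia response; strong numbers were not always called active; many hits fall short of the cut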
PrP 5UTR inh: inhibition of PrP 5' UTR reporter expression. cell-based PrP 5' UTR mRNA reporter, plate reader. inhibition, % (test concentration not listed). hit rate 0.35% among 340,000. AID 488862;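 active means every replicate at 50% or more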;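 further: 0 = median of the neutral control wells; tested in H4 reporter cells; numbers are from one replicate; inactives centre near -14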
ugtP null kill: compounds lethal to S. aureus RN4220 ugtP deletion mutant | OD600 growth, 16 h; some inactives read as strong as hits | growth inhibition, % (concentration not given with the values) | hit rate 0.54% among 330,000 | AID 1259309;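 active means z-score under -3 and OD600 up to 0.15 on both plates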;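 further: plate controls were untreated wells for no effect and antibiotic for full effect; wells of about 80 µL received 100 nL stock; the first replicate is given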
Sa RN4220 lethal: kills Staphylococcus aureus RN4220 | S. aureus RN4220 growth, OD600, 16 h | inhibition, % (test concentration not listed) | hit rate 0.33% among 330,000 | AID 1259311;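 active means z-score of -3 or lower and OD600 up to 0.18 on both plates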;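 further: plate controls were untreated cells for no effect and reference antibiotic for full effect; stock transfer was 100 nL into about 80 µL; one replicate is shown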
Autofluor counter: compound fluorescence in toxin protease inhibitor counterscreen. fluorescence intensity (test concentration not listed). compound autofluorescence counterscreen, microsphere flow cytometry; active compounds read high. hit rate 3.1% among 360,000;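 active means at least 3 SD above the mean of all compounds, about 16000 in these data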;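 further: 100 nL of 1 mM stock went into each well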
Mtb hypoxia inh growth: recorded beside Mtb hypoxia inh, whose call it bears; growth inhibition, %; measured here: M. tuberculosis growth (absorbance);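 0% = vehicle and 100% = reference antibiotic; read after six days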
Numbers without * were called inactive; · = not tested or not shown.

canonical_smiles,BJeLR lethal,Mtb hypoxia inh,Mtb hypoxia inh growth,PrP 5UTR inh,ugtP null kill,Sa RN4220 lethal,Autofluor counter
Cc1nn(Cc2ccc(Cl)cc2)c(Cl)c1/C=N/NC(=O)CNc1ccccc1F,3,·,·,-25,·,·,2146
COC(=O)C1=C(C)N(Cc2ccco2)C(=O)N[C@@H]1c1ccc(Br)cc1,0,·,·,-10,·,·,4011
COc1ccc(NC(=O)c2cnc3n(c2=O)CCS3)cc1OC,1,5,1,-13,-6,1.4,5737
CCC1CCc2sc(C(=O)O)cc2C1 (configuration not stated),0,·,·,-15,-8,0.5,2822
Cc1cc(C)c2c(N)c(C(=O)C(C)(C)C)sc2n1,-2,-7,-1,-4,-2,-1.1,2663
COCCNC(=O)c1nn2c(C(F)(F)F)cc(-c3ccccc3)nc2c1Cl,1,5,-1,-2,5,2.1,3281
COc1ccc(Oc2nccc(-c3ccc(Cl)cc3)n2)cc1,-4,-1,1,-6,14,-12,3135
COc1cccc(C2c3[nH]c4ccccc4c3CCN2C(=O)Cn2cncn2)c1OC (configuration not stated),8,4,2,-32,-8,-2.9,2745
Cn1c(Cc2csc(N)n2)nnc1SCC(=O)NCc1ccccc1,-10,-8,5,-15,-6,-3.0,7911
COc1ccc(C2NC(=O)C(C#N)=C(S)N2c2ccc(C)cc2)cc1OC (configuration not stated),0,10,6,-6,5,3.1,3282
Cc1cc(S(=O)(=O)NCC(c2ccccc2)c2ccccc2)ccc1-n1cnnn1,-7,-5,1,11,18,2.6,8589
CC(=O)NNC(=O)CCn1c2c(c3ccccc31)CCCC2,7,8,-7,-24,-2,3.6,4162

Next results follow:
canonical_smiles,BJeLR lethal,Mtb hypoxia inh,Mtb hypoxia inh growth,PrP 5UTR inh,ugtP null kill,Sa RN4220 lethal,Autofluor counter
CC1CC(C)CN(C(=O)CSc2nnc(N)s2)C1 (configuration not stated),0,5,-6,-17,9,1.6,4706
C(=NC12CN3CN(CN(C3)C1)C2)c1cccnc1,-4,12,8,-19,2,-0.9,2993
CN(CC(=O)Nc1ccc(Cl)cc1)C(=O)CNC(=O)Cc1cccc2ccccc12,·,7,-1,-8,4,2.5,4489
CCOC(=O)c1c(-c2ccc(C)o2)csc1NC(=O)COC(=O)c1cccs1,4,·,·,-16,-10,-8.5,6188
CNc1nc(Nc2ccc(C)c(Cl)c2)nc(N)c1[N+](=O)[O-],-4,-1,6,12,-7,-1.9,2352
Cc1ccc(C(=O)OC2=CC(=O)CC(C)(C)C2)cc1,-3,·,·,-32,1,0.4,4292
CCCCC(=O)NCc1ccc(Cl)cc1,-15,·,·,-18,6,2.4,1932
O=C(NCCCN1CCCCC1)c1ccc2c(c1)ncn2C1CCCC1,3,6,-4,-11,5,2.8,5353
Cc1cccc(NC(=O)CN2CCCCCC2)c1,-23,-6,12,-3,-1,4.4,3538
CC(=O)c1c(C(C)=O)c(C)n(-c2ccc(O)cc2)c1C,-6,-8,5,-9,-5,-0.8,21526*
Cc1nn(C)c(C(=O)N2CCc3ccccc32)c1Br,3,-4,3,3,5,2.7,2709
CC(=O)Nc1ccc(S(=O)(=O)NCCC(=O)OCC(=O)N2CCN(C(=O)c3ccco3)CC2)cc1,-6,2,-5,-7,9,3.7,4622

(continued)
canonical_smiles,BJeLR lethal,Mtb hypoxia inh,Mtb hypoxia inh growth,PrP 5UTR inh,ugtP null kill,Sa RN4220 lethal,Autofluor counter
O=C(Nc1ccccc1O)c1ccc(NS(=O)(=O)c2cccc3cccnc23)cc1,15,·,·,-18,·,·,5961
CSc1nnc(-c2cc(C)on2)n1-c1ccccc1,7,4,7,-24,3,6.0,2153
COCCCN1C(=O)c2ccccc2C1C(=O)NC1CCCCCC1 (configuration not stated),14,1,11,-33,3,-0.9,22972*
Cn1c(SCC(=O)Nc2ccccc2Oc2ccccc2)nnc1C1CC1,·,2,6,-18,4,3.5,4008
CCn1c(SCC(=O)N2CCCCC2)nc2c(c1=O)SCC2,3,4,6,-3,1,0.7,5344
CC1CC(C)CN(C(=O)CSc2nc(Cc3cccs3)nc3ccccc23)C1 (configuration not stated),0,11,-7,-13,-1,2.6,6211
O=C(COC(=O)COc1cccc(F)c1)NCCC1=CCCCC1,-4,15,5,-28,7,7.4,5002
CCCOC(=O)c1ccc(NC(=O)C(=O)NCC2CCCO2)cc1 (configuration not stated),-10,5,17,-19,4,4.3,2122
C=CCOc1ccc(/C(O)=C2\C(=O)C(=O)N(CCCOC)C2c2ccncc2)cc1 (configuration not stated),4,2,-2,5,-8,-15,2519
CC(C)(C)C(=O)N=C1SC2CS(=O)(=O)CC2N1c1ccc2c(c1)OCO2 (configuration not stated),-6,-6,2,-29,-8,3.9,6036
COc1ccc(/C=N/NC(=O)c2cc(C)oc2C)cc1OCc1ccccc1,-9,·,·,-19,·,·,3727
O=C(c1ccc(F)cc1)N1CCC(n2nnc3ccccc32)CC1,-4,1,0,-17,11,3.0,2042

A stretch of the results above:
canonical_smiles,BJeLR lethal,Mtb hypoxia inh,Mtb hypoxia inh growth,PrP 5UTR inh,ugtP null kill,Sa RN4220 lethal,Autofluor counter
CSc1nnc(-c2cc(C)on2)n1-c1ccccc1,7,4,7,-24,3,6.0,2153
COCCCN1C(=O)c2ccccc2C1C(=O)NC1CCCCCC1 (configuration not stated),14,1,11,-33,3,-0.9,22972*

Sorted by formula weight (smallest number first): some entries from above.
canonical_smiles,BJeLR lethal,Mtb hypoxia inh,Mtb hypoxia inh growth,PrP 5UTR inh,ugtP null kill,Sa RN4220 lethal,Autofluor counter
O=C(c1ccc(F)cc1)N1CCC(n2nnc3ccccc32)CC1,-4,1,0,-17,11,3.0,2042
CCCOC(=O)c1ccc(NC(=O)C(=O)NCC2CCCO2)cc1 (configuration not stated),-10,5,17,-19,4,4.3,2122
O=C(COC(=O)COc1cccc(F)c1)NCCC1=CCCCC1,-4,15,5,-28,7,7.4,5002
CCn1c(SCC(=O)N2CCCCC2)nc2c(c1=O)SCC2,3,4,6,-3,1,0.7,5344
COc1ccc(/C=N/NC(=O)c2cc(C)oc2C)cc1OCc1ccccc1,-9,·,·,-19,·,·,3727
Cn1c(SCC(=O)Nc2ccccc2Oc2ccccc2)nnc1C1CC1,·,2,6,-18,4,3.5,4008
CC(C)(C)C(=O)N=C1SC2CS(=O)(=O)CC2N1c1ccc2c(c1)OCO2 (configuration not stated),-6,-6,2,-29,-8,3.9,6036
C=CCOc1ccc(/C(O)=C2\C(=O)C(=O)N(CCCOC)C2c2ccncc2)cc1 (configuration not stated),4,2,-2,5,-8,-15,2519
O=C(Nc1ccccc1O)c1ccc(NS(=O)(=O)c2cccc3cccnc23)cc1,15,·,·,-18,·,·,5961
CC(=O)Nc1ccc(S(=O)(=O)NCCC(=O)OCC(=O)N2CCN(C(=O)c3ccco3)CC2)cc1,-6,2,-5,-7,9,3.7,4622

Next part:
canonical_smiles,BJeLR lethal,Mtb hypoxia inh,Mtb hypoxia inh growth,PrP 5UTR inh,ugtP null kill,Sa RN4220 lethal,Autofluor counter
Cc1nnc(SCC(=O)N2CCc3ccccc32)n1-c1ccccc1,-1,3,2,-12,-6,3.3,4696
C/C(=N\NC(=O)c1ccc(CSc2nc(C)cc(C)n2)cc1)C1CCCCC1,-4,·,·,-1,·,·,2862
COC(=O)Cn1cnc2c(C#N)c3n(c2c1=O)CCCC3,5,-1,4,15,-3,-2.6,9496
O=C(NCc1ccccc1)C1CC(=O)N(C2CCCCCC2)C1 (configuration not stated),1,2,-2,0,21,7.6,3485
O=C(Nc1ccc(N2CCOCC2)cc1)c1cccc2ccccc12,-7,-18,-4,-27,1,5.6,3684
CN(CC(=O)Nc1ccc(C#N)cc1)Cc1ccc(Cl)c(Cl)c1,3,15,10,-7,16,-0.6,3381
O=C(NC1CCCc2ccccc21)c1ccc(F)cc1F (configuration not stated),8,·,·,-19,14,7.5,3534
COc1ccc(NC(=O)C(=S)N2CCCC2)cc1,3,20,5,-7,5,8.2,4365
COn1c(C)c(C(C)=O)c2c3no[n+]([O-])c3ccc21,-1,·,·,-15,4,-0.5,2845
COc1ccc2[nH]c(=O)c(NC(N)=S)nc2c1,-21,5,3,·,-4,6.9,10157
COc1ccc(CCNc2oc(-c3cccc4ccccc34)nc2P(=O)(OC)OC)cc1OC,2,1,4,-4,4,6.8,2488
CC1(C)C2CC=C(C=Nn3cnnc3)C1C2 (configuration not stated),·,10,15,·,-9,-13,·

Continuation:
canonical_smiles,BJeLR lethal,Mtb hypoxia inh,Mtb hypoxia inh growth,PrP 5UTR inh,ugtP null kill,Sa RN4220 lethal,Autofluor counter
CC(C)(C)C(=O)O[C@H]1CC[C@@]2(C)C(=CC(=O)C3C2CC[C@]2(C)C(=O)[C@@H](F)CC32)C1 (some centres not stated),·,15,9,-10,-10,5.4,4214
O=C(NCC1CCCO1)C1CCN(S(=O)(=O)N2CCCC2)CC1 (configuration not stated),-2,7,5,-32,-3,4.5,9359
Cc1ccc(C(=O)N/C(=C\c2ccc(Br)cc2)c2nc(=S)[nH][nH]2)cc1,-6,3,4,-44,-15,5.2,9590
O=C1/C(=C\c2ccc(-c3ccccc3Cl)o2)SC(=S)N1CC1CCCO1 (configuration not stated),-2,·,·,-24,0,7.0,4106
COc1ccc(OC)c(C(c2nnnn2C2CCCC2)N2CCN(c3ccccc3F)CC2)c1 (configuration not stated),-5,·,·,-12,0,-0.7,4786
CCn1c(NCc2ccco2)nc2c1c(=O)n(C)c(=O)n2C,-3,-1,0,-35,1,2.1,21102*
CCN(CC(=O)NCc1cccs1)S(=O)(=O)c1ccc([N+](=O)[O-])cc1,23,9,1,-9,12,20,4557
COc1ccc(Cl)cc1NC(=O)CN(C)C(=O)C1CCN(C(=O)Nc2ccccc2)CC1,·,13,2,-23,5,1.9,3975
C=CCN(Cc1cc(OC)ccc1OC)C(=O)c1cc2ccc(OC)cc2[nH]1,-4,5,3,-38,1,-0.3,3817
COc1ccccc1C(=O)NC(CCSC)C(=O)NC1CCCCCC1 (configuration not stated),5,6,-1,0,4,6.5,4402
O=C(O)CCc1nn2c3ccccc3n(CC(=O)c3ccccc3)c2nc1=O,10,4,-1,-19,-3,2.1,22951*
CN(C)S(=O)(=O)Oc1ccsc1C(=O)Nc1cccc(Cl)c1,4,-5,12,2,-5,1.4,10020

Next part:
canonical_smiles,BJeLR lethal,Mtb hypoxia inh,Mtb hypoxia inh growth,PrP 5UTR inh,ugtP null kill,Sa RN4220 lethal,Autofluor counter
COc1ccnc(Nc2ccc(C)c(C)c2)c1C#N,20,0,8,-19,-7,1.3,4341
COc1cccc(C2=NN(C(=O)CCCC(=O)O)C(c3cccs3)C2)c1 (configuration not stated),-17,0,7,-6,-1,9.2,4574
Cc1c(CC(=O)O)c(=O)oc2c(C)c3occ(-c4ccccc4)c3cc12,-4,-6,8,-17,7,4.9,3779
O=C(Cn1cnc2c(oc3ccccc32)c1=O)NCc1ccccc1,-3,-1,11,-12,-4,-2.7,4472
O=C(Cc1ccc(Cl)cc1)NCCN1CCN(C(=O)Cc2ccc(Cl)cc2)CC1,-7,-8,-8,-4,-1,-2.4,5313
Cc1ccccc1NC(=O)c1cc2ccccc2o1,-2,-5,0,-42,-1,3.0,·
Cc1nc(-c2ccc(F)cc2)c(CC(=O)N(C)CC(=O)Nc2ccccc2Br)s1,1,-8,-4,-7,2,-2.6,5000
CCOc1ccc(CC2c3cc(OCC)c(OCC)cc3CCN2C(=O)c2cc(OC)c(OC)c(OC)c2)cc1OCC (configuration not stated),0,2,6,4,5,4.6,4032
